PABP FP inh: blocks human PABP binding to poly(A) RNA; P11940; fluorescence polarization; inhibition, % at 35 µM; 1% of 290,000 active;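 active = 50% or more with normal probe brightness, or confirmed in later tests; about a fifth of its hits are not listed in these tables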;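 note: calls also rest on retests at 20 µM and on dose response follow-up; controls were probe without protein and protein plus probe with vehicle; some compounds called inactive have numbers as strong as hits; many hits fall short of the cut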
Env fusion inh: blocks HIV Env-driven cell-cell fusion. HeLa-JRFL Env/CEM21 cell fusion, luciferase. inhibition, % at 12.3 µM. 1.1% of 360,000 active. AID 651610;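 active = mean replicate inhibition score of at least 50 and every replicate individually at or above 50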;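 note: 0% = plate neutral controls and 100% = maraviroc near 300 nM; one replicate is shown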
Yeast UUG start: yeast start codon fidelity modulation. S. cerevisiae UUG-firefly luciferase reporter, luminescence/redox ratio. activity score, % at 18.7 µM. 0.13% of 350,000 active;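 active = replicate mean at a twofold rise or more, about +100% in these data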;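 note: firefly luciferase made from a UUG start codon reports start codon fidelity; reporter light over untreated wells divided by growth signal over untreated wells; some hits fall short of that in this replicate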
CSC inhib: blocks cancer stem cells; inhibition, % at 7.5 µM; cancer stem cell-like cells viability, luminescence; 1.1% of 300,000 active;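 active = mean at 75% or more and at least half the replicates too; tested in HMLE shEcad cells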;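 note: 0% = median of negative and 100% = median of positive control wells; the first replicate is given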
eIF4H inh: inhibitors of RNA binding by human eIF4H | eIF4H fluorescence polarization binding assay | inhibition, % at 35 µM | 0.94% of 290,000 active;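 active = 50% or more with normal probe brightness, or confirmed in later tests; about a fifth of its hits are not listed in these tables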;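 note: calls also rest on retests at 20 µM and on dose response follow-up; 0% = protein and probe with vehicle and 100% = probe without protein; strong numbers were not always called active; many hits fall short of the cut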
Rce1 inhib: yeast Ras-converting enzyme inhibition; Q03530; yeast membranes, quenched prenylated peptide cleavage fluorescence; calls only; 0.27% of 290,000 active;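 active = fall in fluorescence gain of 50% or more versus controls, with final raw signal at or below 3038400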;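 note: plate controls were neutral control wells for no effect and wells lacking membranes for full effect; tested at 10 µM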
Target sequence (Q03530 whole entry, looked up): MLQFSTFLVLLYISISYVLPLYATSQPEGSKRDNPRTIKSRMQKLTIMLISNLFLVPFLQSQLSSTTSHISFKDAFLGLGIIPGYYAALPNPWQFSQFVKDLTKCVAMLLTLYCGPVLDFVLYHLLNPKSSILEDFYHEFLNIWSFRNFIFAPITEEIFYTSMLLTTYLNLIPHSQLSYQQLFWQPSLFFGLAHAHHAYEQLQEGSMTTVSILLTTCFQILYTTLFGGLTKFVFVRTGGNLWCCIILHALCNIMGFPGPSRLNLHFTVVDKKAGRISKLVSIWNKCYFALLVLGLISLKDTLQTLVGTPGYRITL
MT1-MMP act inh: MT1-MMP (human) activation inhibition. GFP/RFP ratio change, % at 20 µM. HT1080 RFP-PRO-GFP cells, GFP/RFP ratio fluorescence, overnight; percent of plate control window, DMSO zero. 0.061% of 360,000 active. P50281;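 active = GFP/RFP ratio change of at least 30% with cell ATP level not reduced by more than half and red fluorescence within 50% of control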; note: strong numbers were not always called active
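Assay system: HT1080 cells carrying an RFP-PRO-GFP reporter | Dosing: Single dose of 20 µM compound, 1% DMSO final | Incubation: Cells overnight before dosing, compound overnight, 37 °C, 5% CO2 | Evaluation: GFP/RFP fluorescence ratio | Control set: DMSO and RFP-L50D-GFP cell wells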
eIF4H inh retest: recorded beside eIF4H inh, whose call it bears; inhibition, %; compound at 20 µM; confirmation average;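 mean of two retest wells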
PABP FP inh retest: also measured in PABP FP inh; calls as there; inhibition, %; compound at 20 µM; confirmation repeats;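 mean of two retest wells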
MT1-MMP act inh RFP: recorded beside MT1-MMP act inh, whose call it bears; RFP signal change, %; measured here: RFP expression control read;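 0 = vehicle wells; hits needed this value within 50% of zero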
* hit, by the source's call; i = inactive; x = not tested or not shown.

SMILES	PABP FP inh	Env fusion inh	Yeast UUG start	CSC inhib	eIF4H inh	Rce1 inhib	MT1-MMP act inh	MT1-MMP act inh RFP	others
COc1ccc(CNC(=O)c2c(O)c3ccccc3n(C)c2=O)cc1OC	-1	x	x	-9	-2	i	5	-3
CCOc1ccc2cc(S(=O)(=O)N3CCN(C)CC3)ccc2c1	8	21	-8	8	-4	i	6	3
CCC(=NNC(=O)c1ccc2c(c1)nc(C)n2CC)c1cc(F)ccc1O	x	0	x	21	x	x	2	-3
CCC(=O)Nc1sc2c(c1C(N)=O)CCN(Cc1ccccc1)C2	32*	2	-1	4	96	i	-10	2	eIF4H inh retest=26;PABP FP inh retest=64*
COC(=O)[C@]1(C)N[C@H](CN(C)C(=O)c2ccc(C(C)(C)C)cc2)[C@@H]2C(=O)N(C)C(=O)[C@@H]21	x	11	8	x	x	x	4	5
C=CCn1c(Cc2ccccc2)nc2c(cnn2-c2ccccc2)c1=O	6	26	-9	28	1	i	-7	-20
COc1ccc(CCNC(=O)CN(C)S(=O)(=O)c2ccc3c(c2)CCC(=O)N3)cc1OC	3	-6	-4	-3	-4	i	0	3
CN(Cc1nc(-c2cccnc2)no1)S(=O)(=O)c1ccc(Br)cc1	11	x	-19	1	-6	i	-3	2
Clc1ccc2nc(CN3CCCCC3)cn2c1	2	x	-15	3	-2	i	1	5
O=C(CCCN1CCc2[nH]c3ccc(F)cc3c2C1)c1ccc(F)cc1	-1	16	-13	32	-6	i	2	-4
CC1(C(=O)NS(=O)(=O)c2cccc(OC(F)F)c2)CCN1C(=O)Cc1ccccc1 (stereo unspecified)	x	8	-11	x	x	x	0	6
CC(C)NC(=O)c1onc(CSc2ccc(F)cc2)c1C(=O)NC(C)C	x	-18	-4	-13	x	i	-1	3
COc1cc(NC(=S)N2c3ccccc3CC2C)cc(OC)c1 (stereo unspecified)	4	8	-18	-1	7	i	3	6
Nc1ccccc1C(=O)C[C@H](N)C(=O)O	x	-11	-15	x	x	x	-1	2
Cc1cc(S(=O)(=O)NCc2cccs2)ccc1-n1cnnn1	0	-4	x	-5	-7	i	-1	2
CN(CCCNC(=O)Cn1cccc1C(=O)c1ccccc1)C1CCCCC1	1	-2	x	-1	4	i	-1	-4
CCCCSCCCNC(=O)C1CCC(CNS(=O)(=O)c2ccc(NC(C)=O)cc2)CC1 (stereo unspecified)	-10	2	-21	-1	2	i	1	-1
COC(=O)c1ccc2c(=O)[nH]c(CSc3nc(-c4ccc(F)cc4)cs3)nc2c1	-8	1	x	x	-9	i	7	5
Cc1occc1C(=O)N=Nc1c(O)n(C)c2ccccc12	-1	-7	5	-3	-4	i	18	-1
C=CCN1C(=O)c2ccc(C(=O)N3CCN(S(=O)(=O)c4cccc([N+](=O)[O-])c4)CC3)cc2C1=O	x	-6	8	0	x	x	-8	-1
COc1cccc(/C=C/C(=O)NCCc2ccc3c(c2)OCCO3)c1	-8	-19	-16	-5	-9	i	0	1
CCCc1nn2c(=O)cc(CSCC(=O)Nc3nnc(C(C)C)s3)nc2s1	-6	-4	x	-8	-1	i	0	5
CC(=O)Oc1ccc(N(C(C)=O)S(=O)(=O)c2cccs2)cc1	7	-19	-15	-6	5	i	2	-2
COc1cccc(C2CC(=O)Nc3cc(OC)c(OC)cc32)c1 (stereo unspecified)	9	8	-7	-13	0	i	5	3
Cc1ccc(CN2CCN(c3ccccn3)CC2)s1	2	-33	-20	-6	7	i	1	5
CSCCC(C(=O)Nc1c(C)cccc1C)N(C)CCc1ccccc1 (stereo unspecified)	x	43	-1	x	x	x	0	-1
CCNC(=S)N/N=C/c1cn(Cc2ccc(F)cc2)c2ccccc12	8.9*	4	x	90*	82*	i	2	-11	eIF4H inh retest=102*;PABP FP inh retest=94*
O=C(CCCCCn1c(=S)[nH]c2ccccc2c1=O)NCc1ccc2c(c1)OCO2	0	-12	-8	2	-6	i	6	0
Cc1nn(-c2ccccc2)c(C)c1NC(=O)COC(=O)C1CC(=O)N(CCc2ccccc2)C1 (stereo unspecified)	x	4	15	-5	x	i	2	2
COc1ccc(N2CCN(C(=O)CCCOc3cc(=O)n(C)c4ccccc34)CC2)cc1	-6	-7	6	-8	-12	i	7	5
CC(=O)c1cccc(N=c2scc(-c3ccc(S(=O)(=O)N4CCOCC4)cc3)n2CCO)c1	0	52	x	14	2	i	-10	-27
COc1ccc(N=C2SCC(=O)N2C)cc1	x	3	-13	x	x	x	-2	2
CCC(=O)Nc1ccc(Cl)c(NC(=S)NC(C)=O)c1	-9	-12	x	1	-6	i	5	9
O=C(c1cc(-c2cccc(Br)c2)nc2ccccc12)N1CCCC1	0	25	-3	-2	-17	i	-2	-7
CCn1ccnc1[C@@H]1C[C@H]2CN(c3ccccc3OC)C(=O)[C@]23CCCN13	-2	1	-18	-17	-2	i	1	4
O=C(O)/C(=C\c1ccc(F)cc1)c1ccc(-c2ccccc2)cc1	40	16	x	-10	-4	i	1	1
COC(=O)c1ccc(CS(=O)(=O)c2ccc(C)cc2)cc1	-3	-181	-15	3	-5	i	-3	1
O=C(NCC1CCCO1)C1CCC(N2C(=O)c3ccccc3C2=O)CC1 (stereo unspecified)	3	20	-5	6	-2	i	3	-1
Cc1ccc2c(c1)CCCN2C(=O)c1cc(C)on1	8	4	-15	-1	-7	i	-1	0
O=C(CN1C(=O)NC2(CCCCCCC2)C1=O)Nc1ccc(OC(F)F)cc1	x	0	-14	-1	x	x	1	3
CCN(Cc1ccc2c(c1)OCCO2)C(=O)CN1C(=O)NC2(CCc3ccccc32)C1=O (stereo unspecified)	x	x	0	-8	x	x	-2	-3
COC(=O)c1cc(-c2cccc([N+](=O)[O-])c2)c2c(=O)n(C)c(=O)n(C)c2n1	-8	-7	-5	-17	-5	i	0	2
CC1(C)CC(C)(c2ccc(O)cc2O)N(c2cccc(Cl)c2)C(=S)N1 (stereo unspecified)	13	x	-36	-3	69	i	-7	-1	eIF4H inh retest=0;PABP FP inh retest=0
NC(=O)c1nsc(C(=O)N(c2ccccc2)C(C(=O)NCc2ccc(F)cc2)c2ccc(O)cc2)c1N (stereo unspecified)	-6	22	-4	32	-3	i	-8	-4
O=C(NCCC(=O)N1CCCCCCC1)c1ccc(Cl)cc1	x	7	-6	13	x	i	1	0
CCn1cc(/C=C(\NC(=O)c2cc(OC)c(OC)c(OC)c2)C(=O)NCCCN2CCOCC2)c2ccccc21	-9	-7	x	7	-12	i	4	4
Cn1c(=O)c2c(nc(N3CCNCC3)n2Cc2ccccc2Cl)n(C)c1=O	5	15	x	-15	4	i	x	x
CCC(=O)Nc1ccc2oc(-c3cccc(C)c3)nc2c1	-2	x	-45	5	-4	x	-8	-6
O=S(=O)(/N=C(/Sc1ccccc1)c1ccccc1)c1ccccc1	15	-28	-11	-9	7	i	-3	4
Cc1onc(-c2c(Cl)cccc2Cl)c1COC(=O)c1ccc(Cl)cc1[N+](=O)[O-]	-7	16	x	-15	-4	i	0	-6
CCN(CC)C(=O)N1CCN(C(=O)N(CC)CC)CC1	-8	-17	x	-7	7	i	3	6
CCCCN([C@H](CO)C(C)C)S(=O)(=O)c1ccccc1Br	x	-2	1	x	x	x	0	3
Cc1ccc(NC(=O)CCNS(=O)(=O)c2ccc3[nH]c(=O)oc3c2)cc1F	2	3	-18	-1	11	i	-1	5
CCCS(=O)(=O)c1nc(S(=O)(=O)c2ccc(C)cc2)c(N2CCCC(C)C2)s1 (stereo unspecified)	5	9	-2	4	1	i	-6	-10
Nc1ncnc(SCc2c(F)cccc2Cl)n1	3	-2	-29	x	-11	i	-3	-2
CCOC(=O)c1ccc(NC(=O)Nc2ccc(OC)c(OC)c2)cc1	5	17	-15	-10	-5	i	26	-2
O=C(NCc1ccccc1)c1ccc(Oc2ccc(C(=O)NCc3ccccc3)cc2)cc1	-10	x	-5	2	-7	i	1	4
O=C(COC(=O)/C=C/c1ccccc1Cl)NCCNC(=O)COC(=O)/C=C/c1ccccc1Cl	-19	9	-8	6	-4	i	2	-7
Cn1cc(CN2CCC(n3nccc3NC(=O)CCCc3ccccc3)CC2)cn1	-12	-2	-11	-1	-3	i	-4	0
CCC(C)c1ccccc1N1CC(C(=O)N2CCN(S(=O)(=O)c3ccc(F)cc3)CC2)CC1=O (stereo unspecified)	x	18	x	-11	x	i	-3	0

Gathered by group: the entries above containing a COOH group
SMILES	PABP FP inh	Env fusion inh	Yeast UUG start	CSC inhib	eIF4H inh	Rce1 inhib	MT1-MMP act inh	MT1-MMP act inh RFP	others
Nc1ccccc1C(=O)C[C@H](N)C(=O)O	x	-11	-15	x	x	x	-1	2
O=C(O)/C(=C\c1ccc(F)cc1)c1ccc(-c2ccccc2)cc1	40	16	x	-10	-4	i	1	1

Other entries
SMILES	PABP FP inh	Env fusion inh	Yeast UUG start	CSC inhib	eIF4H inh	Rce1 inhib	MT1-MMP act inh	MT1-MMP act inh RFP	others
COc1ccc(OC)c(C2=NOC(C(=O)N3CCN(c4ccccc4)CC3)C2)c1 (stereo unspecified)	0	-22	-1	-14	5	i	4	3
CCOc1ccc(CN(C)CCc2ccccn2)cc1	-12	10	x	-7	2	i	-3	0
CSc1cccc(NC(=O)C(C)NS(=O)(=O)c2ccc(F)cc2)c1 (stereo unspecified)	4	-7	-10	-8	2	i	-2	1
COc1cc(/C=N/N2C(=O)c3ccccc3C2=O)ccc1O	3	x	-5	6	-19	i	-3	3
CCCn1c(SCC(=O)NC(=O)Nc2ccc(C)cc2C)n[nH]c1=O	1	x	-21	x	8	i	7	2
O=S(=O)(/C=C/c1ccccc1)Nc1ccc2c(c1)OCO2	-2	x	1	-5	9	i	1	1
CC1=C/C(=C/N(C)c2ccccc2)C(=O)S1	67*	-1	-17	-10	52*	i	-12	2
COc1ccc(S(=O)(=O)Cc2ccc(C(=O)N3CCN(c4cccc(C)c4)C(C)C3)o2)cc1 (stereo unspecified)	2	21	-11	67	-11	i	-9	-17
COCCNC(=O)Cn1cc2c(n1)CCCCC2	-3	-4	-18	x	0	i	-2	4
CCCc1ccc(OCc2ccc(C(=O)NN)o2)c(OC)c1	7	-22	-29	x	-11	i	0	-7
O=C(Nc1cccc(S(=O)(=O)NC2=NCCC2)c1)C1CCC1	0	-7	x	-1	5	i	0	1
COc1ccc(Br)cc1/C=N/NC(=O)CN1CCCCC1	7	9	-22	-7	4	i	4	-2
Cc1cccc(OCC(=O)Nc2ccc(C(=O)O)cc2NC(=O)COc2cccc(C)c2)c1	-5	-1	-16	-5	91	i	3	2	eIF4H inh retest=-13;PABP FP inh retest=12
CCn1cc(C2=NC(C)CO2)c2ccccc21 (stereo unspecified)	6	x	-15	x	1	i	2	4
CCN1c2ccccc2-c2nc3ccccc3n2C1c1ccncc1 (stereo unspecified)	-4	x	-20	-9	-1	i	-3	0
O=C(c1cn(-c2ccccc2)nc1-c1ccncc1)n1nnc2ccccc21	x	x	-13	12	x	i	-1	-4
CC1(C(=O)NS(=O)(=O)c2cccc(C#N)c2)CCN1C(=O)C1CCCCC1 (stereo unspecified)	x	3	4	x	x	x	1	5

For reference, two of the compounds above.
SMILES	PABP FP inh	Env fusion inh	Yeast UUG start	CSC inhib	eIF4H inh	Rce1 inhib	MT1-MMP act inh	MT1-MMP act inh RFP	others
COc1ccc(OC)c(C2=NOC(C(=O)N3CCN(c4ccccc4)CC3)C2)c1 (stereo unspecified)	0	-22	-1	-14	5	i	4	3
CCOc1ccc(CN(C)CCc2ccccn2)cc1	-12	10	x	-7	2	i	-3	0

Looked up by compound from the entries so far, 3 records:
SMILES	PABP FP inh	Env fusion inh	Yeast UUG start	CSC inhib	eIF4H inh	Rce1 inhib	MT1-MMP act inh	MT1-MMP act inh RFP	others
COc1ccc(Br)cc1/C=N/NC(=O)CN1CCCCC1	7	9	-22	-7	4	i	4	-2
CC1(C(=O)NS(=O)(=O)c2cccc(C#N)c2)CCN1C(=O)C1CCCCC1 (stereo unspecified)	x	3	4	x	x	x	1	5
CCCn1c(SCC(=O)NC(=O)Nc2ccc(C)cc2C)n[nH]c1=O	1	x	-21	x	8	i	7	2

Screening results deposited in PubChem by several laboratories.

Not a hit list (roughly 2.9% active in at least one column).
